# FGF22 binding = shifts melting point of recombinant human FGF22; 340,000 tested, 1.5% active; AID 651658; Q9HCT0; calls only at 9.99 µM; recombinant FGF22 thermal shift, SYPRO orange fluorescence; percent of sucrose octasulfate shift, DMSO zero;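 active = melting point raised past a set limit in the mean and every replicate; three in four hits are not shown here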
# Target sequence (Q9HCT0 whole entry, looked up): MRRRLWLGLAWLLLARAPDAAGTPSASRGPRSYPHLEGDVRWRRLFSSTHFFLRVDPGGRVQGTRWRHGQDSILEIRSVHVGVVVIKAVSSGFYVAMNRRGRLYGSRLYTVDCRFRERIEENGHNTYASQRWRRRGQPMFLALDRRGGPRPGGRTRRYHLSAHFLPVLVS
# Ecoli rRNA inh = selective bacterial rRNA inhibition in E. coli; GFP signal change (wild-type ribosome), % (no concentration beside the values); E. coli WT GFP vs humanized-ribosome RFP mutants, fluorescence, 24 h; active compounds read low; DMSO median 0, no signal -100; 350,000 tested, 1.6% active; AID 720706;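 active = significant combined selectivity score with lowered wild-type GFP, culture density cut under 30%, mutant RFP and density less affected; inactive = any of these conditions unmet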; also: one replicate is shown; some compounds called inactive have numbers as strong as hits
# Ecoli rRNA inh OD600 = also measured in Ecoli rRNA inh; calls as there; OD600 change, %; measured here: OD600 growth;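 optical density of the mix in the first replicate; 0 = DMSO median and -100 = no signal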
# Ecoli rRNA inh RFP = recorded beside Ecoli rRNA inh, whose call it bears; RFP signal change, %; measured here: RFP humanized mutant strains;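 first replicate; 0 = DMSO median and -100 = no signal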
# Numbers without * were called inactive; i = inactive; & = joins results of further samples. This is a subset. The share of hits here may be higher or lower than overall.
Ecoli rRNA inh RFP,FGF22 binding,Ecoli rRNA inh,Structure,Ecoli rRNA inh OD600
1.6,i,3,C[C@@H]1CN([C@H](C)CO)C(=O)c2cccc(NC(=O)C3CCCCC3)c2O[C@H]1CN(C)C(=O)NC1CCCCC1,-1
-0.6,i,1,COC(=O)C[C@H]1CC[C@H]2[C@@H](COc3ccc(NC(=O)c4cncs4)cc3C(=O)N2C)O1,1
-0.3,i,-4,C[C@@H]1CCCCO[C@@H](CN(C)C(=O)c2ccccc2)[C@H](C)CN([C@@H](C)CO)C(=O)c2cc(NC(=O)Nc3ccc(F)cc3)ccc2O1,-15
1.3,i,2,CCCC#Cc1ccc([C@@H]2[C@@H](C#N)N(C(=O)C3CCCC3)[C@H]2CO)cc1,2
1.0,i,0,C[C@@H]1CCCCO[C@@H](CN(C)S(=O)(=O)c2cccs2)[C@@H](C)CN([C@@H](C)CO)C(=O)c2cc(NC(=O)CCCN(C)C)ccc2O1,10
-2.1,i,-5,C[C@H](CO)N1C[C@H](C)[C@@H](CN(C)S(=O)(=O)c2ccccc2)Oc2c(NC(=O)c3nc4ccccc4s3)cccc2C1=O,-1
-2.8,i,0,CC(C)CN(C[C@@H]1N[C@@H](CO)[C@@H]1c1ccccc1)C(=O)CN(C)C,4
-1.4,i,-1,C[C@@H]1CCCCO[C@H](CN(C)S(=O)(=O)c2ccc(Cl)cc2)[C@@H](C)CN([C@@H](C)CO)C(=O)c2cc(NS(=O)(=O)c3cccs3)ccc2O1,-5
1.1,i,3,COCC#Cc1ccc2c(c1)O[C@H](CN(C)S(=O)(=O)c1ccc(F)cc1)[C@H](C)CN([C@H](C)CO)S2(=O)=O,-11
6.1,i,0,Cc1ccc(S(=O)(=O)N(C)C[C@@H]2OCCCC[C@H](C)Oc3ccc(NS(=O)(=O)c4ccc(F)cc4)cc3C(=O)N([C@H](C)CO)C[C@H]2C)cc1,-5

# Reformatted field by field: part of the list above
molecule: C[C@@H]1CCCCO[C@H](CN(C)S(=O)(=O)c2ccc(Cl)cc2)[C@@H](C)CN([C@@H](C)CO)C(=O)c2cc(NS(=O)(=O)c3cccs3)ccc2O1
  Ecoli rRNA inh RFP: -1.4 | FGF22 binding: i | Ecoli rRNA inh: -1 | Ecoli rRNA inh OD600: -5

molecule: CCCC#Cc1ccc([C@@H]2[C@@H](C#N)N(C(=O)C3CCCC3)[C@H]2CO)cc1
  Ecoli rRNA inh RFP: 1.3 | FGF22 binding: i | Ecoli rRNA inh: 2 | Ecoli rRNA inh OD600: 2

molecule: COCC#Cc1ccc2c(c1)O[C@H](CN(C)S(=O)(=O)c1ccc(F)cc1)[C@H](C)CN([C@H](C)CO)S2(=O)=O
  Ecoli rRNA inh RFP: 1.1 | FGF22 binding: i | Ecoli rRNA inh: 3 | Ecoli rRNA inh OD600: -11

# Fetched by structure from above (3):
Ecoli rRNA inh RFP,FGF22 binding,Ecoli rRNA inh,Structure,Ecoli rRNA inh OD600
-2.1,i,-5,C[C@H](CO)N1C[C@H](C)[C@@H](CN(C)S(=O)(=O)c2ccccc2)Oc2c(NC(=O)c3nc4ccccc4s3)cccc2C1=O,-1
-2.8,i,0,CC(C)CN(C[C@@H]1N[C@@H](CO)[C@@H]1c1ccccc1)C(=O)CN(C)C,4
1.6,i,3,C[C@@H]1CN([C@H](C)CO)C(=O)c2cccc(NC(=O)C3CCCCC3)c2O[C@H]1CN(C)C(=O)NC1CCCCC1,-1

# The listing continues.
Ecoli rRNA inh RFP,FGF22 binding,Ecoli rRNA inh,Structure,Ecoli rRNA inh OD600
-2.0,i,0,COc1ccc2c3c(n(C)c2c1)[C@@H](CO)N(C(=O)c1cnccn1)CC31CN(C)C1,7
-2.6,i,5,CC(C)NC(=O)N(C)C[C@@H]1Oc2cc(C#CC(C)(C)O)ccc2S(=O)(=O)N([C@H](C)CO)C[C@@H]1C,8
-3.5,i,4,CNC[C@H]1OCCCC[C@@H](C)Oc2ccc(NC(=O)Nc3ccc(OC)cc3)cc2C(=O)N([C@@H](C)CO)C[C@H]1C,-4
-2.6,i,1,Cc1ccc(S(=O)(=O)Nc2ccc3c(c2)C(=O)N([C@@H](C)CO)C[C@@H](C)[C@@H](CN(C)C(=O)Nc2ccc(F)cc2)OCCCC[C@H](C)O3)cc1,5
-2.1,i,2,Cc1ccccc1-c1cnc2c(c1)C(=O)N([C@H](C)CO)C[C@@H](C)[C@H](CN(C)CC1CCOCC1)O2,5
0.2,i,-2,C[C@H]1CCCCO[C@H](CN(C)C(=O)Cc2ccccc2)[C@@H](C)CN([C@@H](C)CO)C(=O)c2cc(NC(=O)Cc3ccccc3)ccc2O1,-8
-4.4,i,-18,C[C@@H]1CN([C@H](C)CO)C(=O)c2cccc(NC(=O)C3CCOCC3)c2O[C@@H]1CN(C)S(=O)(=O)c1ccc(Cl)cc1,-12
15,i,3,CCC(=O)N(C)C[C@H]1Oc2cc(C#CC(C)(C)O)ccc2S(=O)(=O)N([C@@H](C)CO)C[C@@H]1C,3
8.5,i,-5,O=C(C[C@H]1C=C[C@H](NC(=O)Nc2cc(F)ccc2F)[C@H](CO)O1)Nc1ccc(-c2ccccc2)cc1,-4
1.8,i,0,CCC(=O)N1CC[C@@H]2[C@@H](CO)Nc3ccc(C#Cc4ccccc4)cc3[C@@H]21,-8
0.4,i,1,CC(C)COC(=O)N(C)C[C@H]1OCc2cn(nn2)CCCC(=O)N([C@H](C)CO)C[C@H]1C,-1
0.3,i,4,COC(=O)[C@]12C[C@H](CC(=O)NCc3cccc4ccccc34)C(=O)N(Cc3ccc4c(c3)OCO4)C1=C[C@H](COCc1ccccc1)O[C@@H]2C,8
1.4,i,1,O=C(C[C@H]1C[C@@H]2c3cc(NC(=O)C4CCC4)ccc3O[C@@H]2[C@H](CO)O1)NC1CCCC1,2
-1.1,i,5,C[C@@H]1CN([C@H](C)CO)C(=O)c2cc(-c3ccccc3F)cnc2O[C@@H]1CN(C)C(=O)c1ccccn1,16
-0.2,i,3,Cc1noc(C)c1NC(=O)N[C@H]1C=C[C@H](CC(=O)NCCCN(C)C)O[C@@H]1CO,2
1.7,i,-4,C[C@H](CO)N1C[C@H](C)[C@@H](CN(C)C(=O)c2ccc(F)cc2)Oc2ncc(C3=CCCC3)cc2C1=O,1
1.0,i,-2,C[C@H]1CN([C@@H](C)CO)C(=O)Cc2cc(NC(=O)Nc3ccc(F)cc3)ccc2O[C@@H]1CN(C)Cc1ccc(C(=O)Nc2ccccc2N)cc1,5
1.2,i,4,C[C@H]1CN([C@@H](C)CO)C(=O)c2cc(NC(=O)CCCN(C)C)ccc2O[C@@H]1CN(C)S(=O)(=O)c1cn(C)cn1,4
-1.0,i,0,C[C@H](CO)N1C[C@H](C)[C@H](CN(C)Cc2cccnc2)OCc2cn(nn2)CCCC1=O,-1
34,i,0,COc1cccc(CN2CCCCN3[C@H](CO)[C@H](c4ccc(-c5cccc(C#N)c5)cc4)[C@@H]3C2)c1,-40
-8.0,i,-12,C[C@@H]1CN([C@H](C)CO)S(=O)(=O)c2ccc(Br)cc2O[C@H]1CN(C)Cc1ccccn1,-28
-4.3,i,2,CN1C(=O)c2cc(NC(=O)C3CCOCC3)ccc2OC[C@H]2O[C@H](CC(=O)NCC3CC3)CC[C@H]21,11
9.2,i,-10,CC(C)NC(=O)Nc1ccc2c(c1)C(=O)N([C@@H](C)CO)C[C@@H](C)[C@@H](CN(C)Cc1ccc(Cl)c(Cl)c1)O2,-37
4.1,i,-6,C[C@H]1CN([C@@H](C)CO)C(=O)c2c(c3ccccc3n2C)-c2ccccc2CO[C@@H]1CN(C)C(=O)Nc1cccc(F)c1,-11
-2.6,i,2,C[C@H]1CN([C@@H](C)CO)C(=O)c2cc(-c3ccccc3)cnc2O[C@@H]1CN(C)C(=O)Cc1ccccn1,4
-0.3,i,5,CN1C(=O)c2cc(NC(=O)C3CCOCC3)ccc2OC[C@H]2O[C@H](CC(=O)NCCc3ccncc3)CC[C@@H]21,10
-1.1,i,-1,C[C@H]1CN([C@@H](C)CO)C(=O)Cc2cc(NC(=O)c3ccncc3)ccc2O[C@H]1CN(C)CC1CCCCC1,10
0.7,i,0,CN1[C@@H]2c3ccc(/C=C/c4ccccc4)c(=O)n3C[C@@H]2[C@@H](CO)[C@@H]1C(=O)N1CCCCC1,-8
-1.6,i,2,O=C(NCC[C@H]1CC[C@H](NC(=O)C2CC2)[C@@H](CO)O1)c1cnccn1,1
2.3,i,-1,O=C(Nc1cccc(Cl)c1)N[C@H]1CC[C@H](CCNC(=O)C2CC2)O[C@H]1CO,6
-1.4,i,7,CS(=O)(=O)Nc1ccc2c(c1)[C@H]1C[C@H](CC(=O)NCC3CC3)O[C@@H](CO)[C@H]1O2,7
3.1,i,1,C[C@@H]1CN([C@@H](C)CO)S(=O)(=O)c2ccc(C#Cc3ccc(F)cc3)cc2O[C@@H]1CN(C)C(=O)c1ccccn1,-30
20,i,-5,CC(C)(C)[S@](=O)N1Cc2cc(C(=O)NC3CCC3)nc(-c3cccc(-c4ccccc4F)c3)c2[C@@H]1CCO,-14
-0.4,i,-3,C[C@H](CO)N1C[C@H](C)[C@@H](CN(C)C(=O)c2cnccn2)Oc2ncc(/C=C/c3ccccc3)cc2C1=O,9
1.6,i,2,Cc1noc(C)c1NC(=O)N(C)C[C@H]1Oc2ccc(NC(=O)Cn3cnnn3)cc2CC(=O)N([C@@H](C)CO)C[C@H]1C,1
-0.6,i,5,CN(C)C(=O)C[C@H]1C=C[C@H](NC(=O)C2CCC2)[C@H](CO)O1,19
-2.6,i,6,C[C@@H]1CN([C@@H](C)CO)C(=O)c2cc(-c3ccccc3)cnc2O[C@H]1CN(C)C(=O)c1ccccn1,2
0.9,i,1,COc1ccc(S(=O)(=O)Nc2cccc3c2O[C@@H](CN(C)Cc2ccccc2)[C@@H](C)CN([C@H](C)CO)C3=O)cc1,8
-0.9,i,0,Cc1noc(C)c1NC(=O)N[C@@H]1CC[C@@H](CC(=O)NCCCN(C)C)O[C@@H]1CO,-1
1.2,i,3,C[C@@H]1CCCCO[C@@H](CN(C)Cc2ccc(C(=O)O)cc2)[C@@H](C)CN([C@@H](C)CO)C(=O)c2cc(NS(=O)(=O)c3ccc(Cl)cc3)ccc2O1,7
-2.5,i,-5,C[C@H](CO)N1C[C@H](C)[C@H](CN(C)Cc2ccc(C(F)(F)F)cc2)Oc2ccc(NC(=O)CCCCCC(=O)Nc3ccccc3N)cc2C1=O,-39
-0.8,i,-2,CC(C)NC(=O)N(C)C[C@@H]1Oc2ncc(C#Cc3ccc(F)cc3)cc2C(=O)N([C@@H](C)CO)C[C@H]1C,0
-1.0,i,1,CO[C@H]1CN(C)C(=O)c2ccc(NC(C)=O)cc2OC[C@@H](C)N(C(=O)c2ccncc2)C[C@H]1C,1
0.3,i,3,CCCNC(=O)Nc1ccc2c(c1)OC[C@H](C)N(C)C[C@@H](C)[C@@H](OC)CN(C)C2=O,2
-4.4,i,-2,CCCNC(=O)C[C@H]1CC[C@@H]2[C@H](COC[C@H](O)CN2Cc2cccc(F)c2)O1,1
-1.4,i,2,CCC(=O)Nc1ccc2c(c1)OC[C@H](C)N(CC1CC1)C[C@@H](C)[C@@H](OC)CN(C)C2=O,-4
0.0,i,-1,C[C@H](CO)N1C[C@H](C)[C@@H](CN(C)Cc2ccc(Oc3ccccc3)cc2)Oc2cc(-c3ccncc3)ccc2S1(=O)=O,-4
1.7,i,-4,COc1cccc(S(=O)(=O)Nc2ccc3c(c2)[C@H]2C[C@H](CC(=O)NCc4ccccc4F)O[C@H](CO)[C@H]2O3)c1,-17
-0.6,i,-1,O=C(C[C@H]1C=C[C@@H](NC(=O)CC2CC2)[C@H](CO)O1)NCC(F)(F)F,2
2.0,i,-3,Cc1ccccc1S(=O)(=O)N1C[C@H]2[C@@H](c3ccccc31)[C@H](CO)N2C(=O)CC1CC1,-11

# The list goes on:
Ecoli rRNA inh RFP,FGF22 binding,Ecoli rRNA inh,Structure,Ecoli rRNA inh OD600
1.8,i,-2,C[C@@H]1CN([C@@H](C)CO)C(=O)Cc2cc(NS(=O)(=O)c3ccc(Cl)cc3)ccc2O[C@H]1CN(C)S(=O)(=O)c1cccs1,-3
-1.9,i,0,CCNC(=O)C[C@H]1CC[C@H]2[C@@H](COc3ccc(NC(=O)Nc4ccccc4F)cc3C(=O)N2C)O1,-4
1.3,i,2,C[C@@H]1CN([C@@H](C)CO)C(=O)Cc2cc(NC(=O)C3CC3)ccc2O[C@H]1CN(C)S(C)(=O)=O,3
1.2,i,2,COC(=O)[C@]12C[C@H](CC(=O)NCc3ccccc3)C(=O)N(CCC3=CCCCC3)C1=C[C@H](COCc1ccccc1)O[C@@H]2C,-2
-0.1&0.0,i,3&16,C[C@H](CO)N1C[C@H](C)[C@@H](CN(C)C(=O)Nc2ccc3c(c2)OCO3)OCc2cn(nn2)CCCC1=O,1&13
-1.1,i,-5,COc1ccc(NC(=O)Nc2ccc3c(c2)[C@H]2C[C@H](CC(=O)NCC4CC4)O[C@H](CO)[C@H]2O3)cc1,-4
8.9,i,-11,C[C@@H]1CN([C@H](C)CO)C(=O)c2cccc(NC(=O)c3cnccn3)c2O[C@H]1CN(C)Cc1ccc(-c2ccccc2)cc1,-17
-2.8,i,1,CO[C@H]1CN(C)C(=O)c2cc(NC(=O)c3nc4ccccc4s3)ccc2OC[C@H](C)N(Cc2cncnc2)C[C@@H]1C,3
7.1,i,-7,C[C@H]1CN([C@@H](C)CO)S(=O)(=O)c2ccc(C#Cc3ccccc3)cc2O[C@H]1CN(C)C(=O)Cc1ccccn1,-23
2.3,i,5,O=C(CCN1CCCCC1)NCC[C@H]1CC[C@H](NC(=O)Cc2cccnc2)[C@H](CO)O1,3
0.4,i,0,O=C(C[C@@H]1C=C[C@@H](NC(=O)CN2CCOCC2)[C@H](CO)O1)NC1CCCCC1,-1
